# Screening data: PubChem BioAssay, ICCB-Longwood Screening Facility, Harvard Medical School
# Choline anaer gr = choline-fed anaerobic bacterial growth inhibition; Gram-negative bacterium anaerobic choline minimal medium, absorbance growth; stronger effect = lower value; many inactives read as strong as hits in the columns shown; calls only; 0.2% of 55,000 active;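 active means growth z-score on choline under -2 at 7 or 20 h with little or no fall on glycerol, limits in tiers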;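 further: stock transfer was 300 nL into about 50 µL; the organism is E. coli; final concentration not given here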
# Choline anaer gr early = second read-out of Choline anaer gr, no call of its own (marks repeat the call); z-score; measured here: choline growth z-score, timepoint 1;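 score of optical density at 7 h as mean of two plates; lower means less growth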
# Numbers without * were called inactive; i = inactive; & = joins results of further samples.
Compound	Choline anaer gr	Choline anaer gr early
CCc1ccc(S(=O)(=O)N2CCCC2c2nc(-c3ccc(Cl)cc3)no2)cc1 (stereo unspecified)	i	-0.08
Cc1cc2c(cc1C)NC1(CCCCCC1)C(=NCc1ccccc1)N2	i	0.5
Cc1nc(-n2[nH]c(C)c(CC(=O)N3CCOCC3)c2=O)sc1C	i	0.92
Cc1nnc(-c2coc(S(=O)(=O)N3CCCC3)c2)o1	i	-0.98
CC1=C(c2ccc(C)c(C)c2)S(=O)(=O)N(CC(=O)NCc2ccccc2Cl)C1=O	i	1.1
CC(=O)NCCc1csc(C2CCCN(C(=O)c3ccoc3)C2)n1 (stereo unspecified)	i	-1.8
CCOC(=O)Cn1cc(C(=O)Nc2ccc(C(=O)OCC)cc2)c(=O)c2ccc(C)nc21	i	0.31
CCNc1nc(N2CCOCC2)nc(N2CCC(Cc3ccccc3)CC2)n1	i	0.65
CC1(C(=O)NC2CCCCC2)Cn2c(cc3ccccc32)C(=O)N1CCN1CCOCC1 (stereo unspecified)	i	0.28
CN(C)c1cc(OC2CCN(C(=O)c3cnccn3)C2)ncn1 (stereo unspecified)	i	2.1
CC(O)(c1ccc(Cl)cc1)C(CN1CCOCC1)c1ccccc1 (stereo unspecified)	i	0.3
COc1ccc(S(=O)(=O)N2CCc3cc(-c4ccc(C(=O)N5CCOCC5)cc4)ccc32)cc1	i	1.6
O=C(C1CCCCC1)N1CCC2(CC1)Nc1ccc(Cl)cc1-n1cccc12	i	0
Cc1ccc2[nH]cc(CCN3CC(C(=O)Nc4nnc(C(C)(C)C)s4)CC3=O)c2c1 (stereo unspecified)	i	0.71
Cc1c(C)n(-c2ccccc2)c2ncn(CCC(=O)NCc3ccccc3Cl)c(=O)c12	i	-0.38

# Further compounds
Compound	Choline anaer gr	Choline anaer gr early
CCOc1ccccc1NC(=O)NCc1nnnn1-c1ccc(Cl)cc1	i	0.68
O=C(O)CC/C=C\C[C@@H]1CO[C@H](c2ccccc2Cl)O[C@@H]1c1ccccc1O	i	-0.59
CCSc1nn(CC(=O)Nc2ccccc2C(=O)OC)c(N)c1S(=O)(=O)c1ccc(C)cc1	i	0.96
CCCN1C(=O)c2c(C(=O)NCCC(C)C)ncn2CC1(C)C(=O)NCCC(C)C (stereo unspecified)	i	0.82
O=C(CCc1nnc2ccc(NCc3ccccc3Cl)nn12)NCC1CCCO1 (stereo unspecified)	i	-1.1
Fc1ccc(OCc2nnc3sc(-c4cnccn4)nn23)cc1	i	-2.8
O=C(Nc1ccc(Br)cc1)c1ccc(-c2cc(N3CCCC3)ncn2)cc1	i	0.17
CCc1nn(CCCC(=O)N2CCC(C)CC2)c(=O)c2cc3oc(C)cc3n12	i	0.3
Cc1ccnc(N2CCCC(C(=O)NCCc3ccc(S(N)(=O)=O)cc3)C2)n1 (stereo unspecified)	i	0.41
CCC(C)NC(=O)c1nn(C)c2c1CCc1sccc1-2 (stereo unspecified)	i	-0.45
Clc1ccc(CNc2nc(-c3nnc(-c4ccccc4)o3)nc3ccccc23)cc1	i	-0.56
COc1cccc(C2c3[nH]c4ccccc4c3CCN2S(=O)(=O)c2ccc(C)cc2)c1 (stereo unspecified)	i	1.5
COc1ccc(C2CC(=O)C3=C(C2)Nc2onc(C)c2C3c2ccccc2C)cc1OC (stereo unspecified)	i	-0.1
CCCCC1C(=O)CC[C@H]2[C@@H]1CC(=O)[C@@H]2C/C=C\CCCC(=O)O (stereo partly specified)	i	1
CCOc1c(N2CCCCC2)c(=O)c1=O	i	-0.82

# Next results follow.
Compound	Choline anaer gr	Choline anaer gr early
COc1ccc(-c2noc(-c3cn(Cc4ccc(N)cc4)cn3)n2)cc1	i	1.7
COc1cccc(NC(=O)CC2CCN(S(=O)(=O)c3ccc4c(c3)oc(=O)n4C)CC2)c1	i	-1.6
Cc1occc1-c1nnc(SCC(=O)NC2CCCCC2)o1	i	0.76
CCc1nc2ccccc2n1CC(O)COc1c(C)cccc1C (stereo unspecified)	i	0.67
Cc1nnc(-c2ccc(S(=O)(=O)N3CCCCCC3)o2)o1	i	0.75
CCOc1ccc(NC(=O)Nc2ccc3nc(-c4ccccc4)cc(OC)c3c2)cc1	i	0.5
CCOc1c(N2CCCCC2C)c(=O)c1=O (stereo unspecified)	i	-0.61
CCOC(=O)C1CCN(C(=O)CSc2nccc3c2ccn3Cc2cccc(C)c2)CC1	i	0.4
COc1ccc(-c2noc(Cc3nc(-c4ccc(Br)cc4)cs3)n2)cc1OC	i	0.21
O=C(Oc1ccc(Br)cc1)c1cc(-c2ccc3c(c2)OCCO3)on1	i	0.7
COCCn1c(C2CCN(S(=O)(=O)c3ccc(F)cc3)C2)nc2cccnc21 (stereo unspecified)	i	1.4
CCc1cc(-c2csc(S(=O)(=O)N3CCN(Cc4ccc5c(c4)OCO5)CC3)c2)on1	i	1.3
CCN(C(=O)C1CCC(=O)N1S(=O)(=O)c1ccc(F)cc1)c1ccccc1 (stereo unspecified)	i	0.13
CCOc1ccc(CCNC(=O)c2cc3ccccn3n2)cc1	i	0.62
COc1ccc(-c2nn(C)c3sc(C(=O)O)cc23)cc1OC	i	0.98

# Continuation.
Compound	Choline anaer gr	Choline anaer gr early
CC(=O)Nc1ccc(C(=O)NC(=NCc2ccncc2)Nc2cccc(C(F)(F)F)c2)cc1	i	-1.6
CC(CNC(=O)C1CCN(c2nc3ccccc3[nH]2)CC1)c1ccccc1 (stereo unspecified)	i	0.26
Cn1c(=O)c2cn3c(c2n(C)c1=O)C(c1ccc(O)c(O)c1)Nc1ccccc1-3 (stereo unspecified)	i	-6
O=c1[nH]c(=O)n([C@H]2C[C@H](O)[C@@H](CO)O2)cc1I	i	0.94&0.31
Cc1ccc(NS(=O)(=O)c2c(C)nc3sc4cc(C)ccc4n3c2=O)c(C)c1	i	1
O=C(NCCn1c(CCc2ccccc2)nc2ccccc21)NCc1ccc(F)cc1	i	0.2
Cc1nc2cccnc2n1-c1cc(C(=O)NCCc2c[nH]c3ccc(Cl)cc23)ccc1Cl	i	-0.13
O=C1CC(c2ccncc2)c2cc3c(cc2N1)OCO3 (stereo unspecified)	i	-1.2
CCOc1cc(C2Nc3ccc(C)cc3[C@H]3OCC[C@@H]23)cc(Br)c1OCC (stereo partly specified)	i	0.78
CCN(C(=O)Nc1ccc(OC)c(OC)c1)c1nc(-c2ccc(Br)cc2)cs1	i	0.82
Cc1c(Cl)cccc1Nc1ccccc1C(=O)O	i	0.05&0.16&0.36
CCOc1ccc(-c2nonc2NC(=O)COc2ccc(Cl)c(C)c2)cc1C	i	0.93
CN(C)C(=O)C1CCCN(Cc2cccs2)C1 (stereo unspecified)	i	0.85
Cc1ccccc1Cc1c(C)nc2c(-c3nc(-c4ccccc4C)no3)cnn2c1C	i	-1.5
CN1CCCn2nc(C3CCN(S(=O)(=O)c4ccc5c(c4)OCCO5)CC3)cc2C1=O	i	-0.96

# An excerpt from above in order of SMILES length, smallest number first:
Compound	Choline anaer gr	Choline anaer gr early
CCC(C)NC(=O)c1nn(C)c2c1CCc1sccc1-2 (stereo unspecified)	i	-0.45
CN(C)c1cc(OC2CCN(C(=O)c3cnccn3)C2)ncn1 (stereo unspecified)	i	2.1
Cc1nc(-n2[nH]c(C)c(CC(=O)N3CCOCC3)c2=O)sc1C	i	0.92
COc1ccc(-c2noc(-c3cn(Cc4ccc(N)cc4)cn3)n2)cc1	i	1.7

# An excerpt of these results, with each value named:
O=c1[nH]c(=O)n([C@H]2C[C@H](O)[C@@H](CO)O2)cc1I
  Choline anaer gr: i	Choline anaer gr early: 0.94&0.31

Cc1ccc(NS(=O)(=O)c2c(C)nc3sc4cc(C)ccc4n3c2=O)c(C)c1
  Choline anaer gr: i	Choline anaer gr early: 1

# The list goes on.
Compound	Choline anaer gr	Choline anaer gr early
COC(=O)CC1=CC(=O)N(Cc2ccc(F)cc2Cl)c2cc(C)c(C)cc2N1	i	-0.53
CC(C)N1CCN(S(=O)(=O)c2ccc(-c3nnc(C4CC4)o3)o2)CC1	i	-0.55
Cc1ccc(-c2nc3sc(CCNC(=O)c4ccc(F)cc4)c(C)n3n2)cc1	i	0.4
CCC(=O)Nc1nc2c(C)cc(NC(=O)Nc3ccc(CC)cc3)cc2s1	i	0.11
O=C(NCCc1c[nH]c2ccccc12)C1CCN(Cc2cc3ccccc3n2Cc2ccccc2)CC1	i	0.27
CCn1nc(C)c(CCN(C)C(=O)NCC2CCCO2)c1C (stereo unspecified)	i	-1.7
O=c1[nH]c(SCc2c(F)cccc2Cl)nc2c1CN(Cc1ccc(F)cc1)CC2	i	-0.27
CN(CCc1noc(-c2ccc(C(=O)N3CCCC3)cc2)n1)C(=O)NC1CCCCC1	i	-0.43
O=C(Cn1cnc2onc(-c3ccc(Cl)cc3)c2c1=O)N1CCc2ccccc21	i	1
NC(N)=N[C@@H](CCC(=O)O)C(=O)O	i	0.06
Cc1ccc(NC(=O)c2ccc(=O)n(CCC(=O)N3CCN(c4ccccn4)CC3)n2)cc1C	i	-1.2
Cc1nn(Cc2ccc(Cl)cc2)c(C)c1NC(=O)COCc1cc(-c2ccc3c(c2)OCO3)on1	i	-0.78
Cc1nn2c(S(=O)(=O)NCC3CC3)c(C)nc2s1	i	-1.2
COc1ccc(-c2ccc(CNC3CCCC3)o2)cc1Cl	i	-0.15
CC(C)NC(=O)CCn1c(=O)c2ccccc2n2c(=O)n(Cc3ccccc3F)nc12	i	1

# Carrying on:
Compound	Choline anaer gr	Choline anaer gr early
CCc1ccc(Cn2c(=O)c3sccc3n3c(=S)[nH]nc23)cc1	i	0.12
CCOC(=O)C(C)n1nc(C)c2nn(-c3ccccc3)c(-n3cccc3)c2c1=O (stereo unspecified)	i	-0.29
Cc1ccc(C(=O)NC2CCN(c3ncnc4c3CCC4)C2)s1 (stereo unspecified)	i	0.19
CC(C)CC(=O)Nc1cccc(-c2ccc3cc(C(C)C)ccc3n2)c1	i	0.24
O=C(COc1ccccc1Cl)Nc1noc(-c2ccccc2)n1	i	-0.66
O=C1CN(Cc2c(F)cccc2Cl)S(=O)(=O)c2ccccc2N1Cc1ccccc1F	i	3.4
CC(=O)N1CCN(c2cc(N3CCCC3)nc(C)n2)CC1	i	1.1
O=C1c2ccccc2C(=O)c2c1ccc(O)c2O	i	-0.42
O=S(=O)(Nc1ccc(-c2ccc(N3CCOCC3)nn2)cc1)c1ccc(F)cc1	i	0.8
CN(C(=O)CSc1nccnc1N1CCN(c2ccccc2)CC1)c1ccc(F)cc1	i	-0.05
Cc1ccccc1N1C(=O)Nc2ccccc2S1(=O)=O	i	-0.57
O=C(NC1CC1)C1CCN(c2nc(-c3ccc(Cl)cc3)no2)CC1	i	-0.18
O=C(NCc1ccc2c(c1)OCO2)c1cccc(Oc2cc(-c3ccc(F)cc3)ncn2)c1	i	-0.9
O=C(CCc1ccc(O)cc1)c1c(O)cc(O)cc1O[C@@H]1O[C@H](CO)[C@@H](O)[C@H](O)[C@H]1O	i	-0.58
COc1ccc(C2=C(O)C(=O)N(c3ccc(Cl)cc3)C2c2ccccc2F)cc1 (stereo unspecified)	i	1.5

# Laid out differently: entries from further up.
# Results follow in this order: Choline anaer gr, Choline anaer gr early
- COc1ccc(C2=C(O)C(=O)N(c3ccc(Cl)cc3)C2c2ccccc2F)cc1 (stereo unspecified)
 : i, 1.5
- CN(C(=O)CSc1nccnc1N1CCN(c2ccccc2)CC1)c1ccc(F)cc1
 : i, -0.05
- O=S(=O)(Nc1ccc(-c2ccc(N3CCOCC3)nn2)cc1)c1ccc(F)cc1
 : i, 0.8
- O=C(COc1ccccc1Cl)Nc1noc(-c2ccccc2)n1
 : i, -0.66

# New compounds follow.
Compound	Choline anaer gr	Choline anaer gr early
Cc1ccccc1Cn1nc2c(S(=O)(=O)N3CCCC3)cccn2c1=O	i	-0.93
Clc1ccc(Cl)c(-c2ccc(CNCCN3CCNCC3)o2)c1	i	-0.19
COc1ccc(CNC(=O)C2(C)CCCN(S(=O)(=O)c3ccc(F)cc3F)C2)cc1 (stereo unspecified)	i	-0.19
CC(C)n1c(SCc2nc(-c3ccc4c(c3)OCO4)no2)nc2cc3c(cc2c1=O)OCO3	i	0.29
Cc1cc(NC(=O)CSc2ccncc2)ccc1-c1nc2ccccc2s1	i	0.07
COc1ccc(NC(=O)c2ccc(Cl)cc2)cc1CN1CCn2c(nc3ccccc32)C1	i	0.26
Cn1nc2ccc(S(=O)(=O)N3CCSCC3)cn2c1=O	i	0.64
Cc1sc(-c2cc(C(F)(F)F)on2)cc1S(=O)(=O)NCc1cccs1	i	0.43
CN1C(=O)CC[C@H]1c1cccnc1	i	0.95
Cc1ccc(-n2c(=O)c3cccnc3n2CC(=O)Nc2ccc(C)cc2C)cc1	i	2.1
O=C(NCC1CCCO1)C1CCN(c2nc3cccnc3s2)CC1 (stereo unspecified)	i	-0.56
CCn1nc(C)c(CCN(C)C(=O)Nc2ccc(OC)cc2OC)c1C	i	-0.76
Cn1cc(C(=O)N2CCC(Cc3ccccc3)CC2)c(=O)c2cc(S(=O)(=O)N3CCCC3)ccc21	i	1.8
Cc1ccc(NC(=O)NCc2c(C)nn(-c3ccccc3)c2-n2cccc2)cc1C	i	-0.37
CC1(C)C(=O)N(CC(=O)Nc2cccc(Cl)c2)c2ccccc21	i	-1.3

# Other structures:
Compound	Choline anaer gr	Choline anaer gr early
Cc1ccc(-n2nnc(C(N)=O)c2C)cc1	i	-3.3
CC(C)CCNC(=O)c1cc2c(s1)N(C)CCC2	i	0.37
CCn1c(=O)cc(SCC(=O)N2CCN(c3ccccn3)CC2)c2ccccc21	i	-0.61
CCCCOc1cc(C(=O)NCCN(CC)CC)c2ccccc2n1	i	0.82&0.39
CC(C)c1cc(C(=O)Nc2nc3c(s2)CCCC3)nn1C1CCS(=O)(=O)C1 (stereo unspecified)	i	-1.8
CCCCC/C=C\C/C=C\CC1OC1C/C=C\CCCC(=O)O (stereo unspecified)	i	0.33
O=C(CSC1=Nc2ccccc2N=C(c2ccccc2)C1)Nc1ccc(Br)cc1	i	0.45

# These rows are one share of the data; count on the stated rates, not on these rows.
